Compound activity (PubChem BioAssay)
ClpP mod: qHTS Assay for Activators of ClpP; ATP-dependent Clp protease proteolytic subunit (Bacillus subtilis (strain 168)), P80244; purified B. subtilis ClpP, FRET peptide cleavage, 20 min; Potency, µM (top dose mostly 57.5 µM), for inactives: top-dose activity change, negative = active; 340,000 compounds, 1.9% hits; AID 651965, 2013; active = well fitted falling curve with a large enough effect; inconclusive = small, poorly fitted or top-dose-only effect; inactive = no such curve, though single readings can be large or run the other way; also: potency is read from the fitted curve at half-maximal effect; the source files actives as falling curves though it sought activators and does not explain the sign; nearly all actives have a fitted effect of over 65% in size; many hits overshoot -100%
Target sequence (P80244 whole entry, looked up): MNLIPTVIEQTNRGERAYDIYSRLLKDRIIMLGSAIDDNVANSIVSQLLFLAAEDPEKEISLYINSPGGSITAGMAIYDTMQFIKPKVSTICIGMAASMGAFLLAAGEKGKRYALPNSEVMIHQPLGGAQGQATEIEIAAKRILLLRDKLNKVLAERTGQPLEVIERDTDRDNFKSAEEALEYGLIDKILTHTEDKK
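ClpP 10 microg/mL final, pH 8 Tris/KCl buffer with BSA, glycerol, Tween-20; compound pinned in; FRET-FV substrate; RT 20 min; Ex320/Em430; ΔFRET vs ADEP 5.8 microM, DMSO, no enzyme.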
gsp antagonist: qHTS for Antagonists of gsp, the Etiologic Mutation Responsible for Fibrous Dysplasia/McCune-Albright Syndrome: qHTS | Potency, µM (highest dose often 76.9 µM), inactives show at the top dose activity change, negative = inhibition, most hits filed as inhibitors | 340,000 compounds, 0.4% hits | gsp-mutant cells, cAMP HTRF, 30 min; control for the full effect not named in the record; active = falling curve of any shape with a large fitted effect; inconclusive = falling curve, mostly with a smaller effect; inactive = flat or rising curve; cell line not stated here;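 also: intracellular cAMP measured with PDE inhibitor Ro 20-1724 present during compound exposure; potency is read from the fitted curve at half-maximal effect; % is scaled to controls: 0 for no effect and ±100 for the full control effect; nearly all actives have a fitted effect of over 65% in size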
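Cells, 2000/well, grown 16–24 h in DMEM 10% FBS with 0.5 mg/ml G418, then compounds plus […] (300 uM addition stock), 30 min at 37C. cAMP read by HTRF (cAMP-d2 and anti-cAMP antibody-K in lysis buffer) after 30 min RT.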
gsp agonist: qHTS for Agonist of gsp, the Etiologic Mutation Responsible for Fibrous Dysplasia/McCune-Albright Syndrome: qHTS. gsp mutant cells, cAMP HTRF, 30 min; control for the full effect not named in the record. Potency, µM (titrated, usually from 76.9 µM), for inactives: top-dose activation (cAMP increase), actives largely listed as activators. 340,000 compounds, 0.13% hits. AID 624287, 2012; active = well fitted activation curve with a large enough effect; inconclusive = small, poorly fitted or top-dose-only effect, or another doubt; inactive = no such curve, though single readings can be large or run the other way; cell line not stated here;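 also: phosphodiesterase inhibitor Ro 20-1724 added with compounds to block cAMP breakdown; potency is read from the fitted curve at half-maximal effect; nearly all actives have a fitted effect of over 60% in size; about a fifth of the inactives were tested at one dose only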
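Cells stably selected in G418 were plated at 2000/well, grown 16-24 hr, then given compounds in DMSO with the PDE inhibitor […] (300 uM solution added) for 30 min at 37C; cAMP was read by HTRF.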
Sfp inh: qHTS Assay for Inhibitors of Bacillus subtilis Sfp phosphopantetheinyl transferase (PPTase); 310,000 compounds, 3.5% hits; Potency, µM, for inactives: max response, negative = inhibition, most hits filed as inhibitors; 4'-phosphopantetheinyl transferase ffp (Bacillus subtilis), Q9F4F7; Biochemical Sfp PPTase activity, qHTS; AID 1490, 2009; active = well fitted inhibition curve with a large enough effect; inconclusive = small, poorly fitted or top-dose-only effect, or another doubt; inactive = no such curve, though single readings can be large or run the other way;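 also: the enzyme is Sfp with the accession as filed and its product quenches rhodamine fluorescence; potency is read from the fitted curve at half-maximal effect; 0% = enzyme reaction without inhibitor and -100% = no enzyme wells; top concentration of the series not given in the record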
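Reaction rates are the 30-min fluorescence difference (ex 525, em 598 nm) in wells containing 15 nM Sfp, 5 uM rhodamine-CoA and 12.5 uM BHQ-2-YbbR at pH 7.6 with 10 mM MgCl2.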
TRPV1 potentiator: HTS Assay for Compounds that Act as Potentiators of the Vanilloid Receptor 1; 320,000 compounds, 0.02% hits; potentiation, % at 8.33 µM; Transient receptor potential cation channel subfamily V member 1 (Homo sapiens), Q8NER1; TRPV1-expressing cells, Fluo-8 calcium influx, capsaicin EC20 potentiation; host cell line not named in the record; control for the full effect not named in the record; active means potentiation above 80%; inconclusive means 30% to 80%; inactive means below 30%; also: 0% is about no effect
Target sequence (Q8NER1 whole entry, looked up): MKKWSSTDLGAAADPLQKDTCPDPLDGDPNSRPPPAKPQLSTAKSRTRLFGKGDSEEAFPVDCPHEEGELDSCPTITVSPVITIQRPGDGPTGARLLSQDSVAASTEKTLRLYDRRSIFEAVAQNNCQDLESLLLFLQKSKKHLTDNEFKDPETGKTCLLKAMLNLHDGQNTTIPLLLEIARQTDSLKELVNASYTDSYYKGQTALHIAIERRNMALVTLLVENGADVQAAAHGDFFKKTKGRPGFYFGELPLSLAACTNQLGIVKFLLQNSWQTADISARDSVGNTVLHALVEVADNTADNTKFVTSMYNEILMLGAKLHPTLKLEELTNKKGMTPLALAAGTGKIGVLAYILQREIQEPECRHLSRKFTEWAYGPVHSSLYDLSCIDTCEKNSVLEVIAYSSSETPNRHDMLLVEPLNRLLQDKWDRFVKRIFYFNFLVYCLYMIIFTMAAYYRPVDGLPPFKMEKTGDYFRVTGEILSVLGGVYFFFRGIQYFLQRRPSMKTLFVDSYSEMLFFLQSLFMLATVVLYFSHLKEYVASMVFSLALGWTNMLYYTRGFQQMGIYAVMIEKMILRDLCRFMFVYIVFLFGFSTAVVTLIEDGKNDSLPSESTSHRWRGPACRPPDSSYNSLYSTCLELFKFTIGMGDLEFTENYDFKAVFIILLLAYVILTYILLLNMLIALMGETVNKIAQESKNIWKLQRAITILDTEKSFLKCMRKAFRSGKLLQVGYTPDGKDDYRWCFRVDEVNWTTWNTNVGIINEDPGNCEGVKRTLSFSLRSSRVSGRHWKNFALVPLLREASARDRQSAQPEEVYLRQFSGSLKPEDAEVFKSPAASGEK
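Cells expressing TRPV1 were dye-loaded with Fluo-8 and read kinetically: 10 s baseline, 3 min after compound (agonist portion), then 2 min after EC20 capsaicin (allosteric enhancer portion). Calcium-bound dye fluorescence at 480/520 nm.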
Menin-MLL FL inh: qHTS Assay for Inhibitors Targeting the Menin-MLL Interaction in MLL Related Leukemias: Competition With Fluorescein Labeled MLL-derived Peptide. Fluorescence polarization, fluorescein-MLL peptide displacement from menin. FP activity change, % at 61.4 µM. 290,000 tested, under 10 active; inconclusive = falling polarisation curve, or a change in total fluorescence; inactive = total fluorescence flat and polarisation flat or rising; no compound was filed as active; the % refers to the polarisation; negative = inhibition;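 also: % of control where 0% means no effect; inhibitors lower the polarisation; unlabelled MLL peptide was the positive control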
TRPML1 blocker: qHTS for Inhibitors of the Human Mucolipin Transient Receptor Potential 1 (TRPML1). TRPML1-inducible cells, Ca2+ dye fluorescence, FDSS; hits give low values; inhibition of EC80 agonist-evoked calcium signal. activity change, negative = inhibition, % (concentration not given with the values). 390,000 compounds, 0.02% hits; in the data active means activity change below about -50%; inconclusive means about -30% to -50%; inactive means above about -30%;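 also: stimulus is agonist 54-4 at its EC80 concentration; % is scaled to controls: 0 for no effect and ±100 for the full control effect; the text of the record puts the active cut at -80%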
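Tet-induced TRPML1-DL cells loaded with Ca8 no-wash calcium dye were read kinetically on FDSS. Compound addition was followed by EC80 agonist 54-4 (4 uM final); inhibition was read over 110 s.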
* marks the source's active call; other numbers are inactive results; ? = inconclusive; . = no result given; & = joins results of further samples; [ ] = remark or other dose.

SMILES	ClpP mod	gsp antagonist	gsp agonist	Sfp inh	TRPV1 potentiator	Menin-MLL FL inh	TRPML1 blocker
NC(=O)CN1C(=O)C(O)(CC(=O)/C=C\c2ccc3c(c2)OCO3)c2ccccc21 (stereo not given)	.	6%	-5%[15.4 µM]	7%	-1	-1.7	-6
Cn1c(=O)c([N+](=O)[O-])c(NCc2ccc3c(c2)OCO3)c2ccccc21	.	-15%	?	50µM*	8	-1.7	0
N/C(=N\OC(=O)c1ccc(Cl)cc1[N+](=O)[O-])c1ccccn1	-1.1%	1%	-37%[15.4 µM]	16%	9	0.1	-8
CN(CCc1ccccc1)C(=O)c1ccc(NC(=O)Cc2ccc(NC(=O)C3CCN(C(=O)c4ccccc4)CC3)cc2)cc1	1.2%	10%	.	.	.	.	4
COCCN(CCOC)C(=O)c1ccc(NS(=O)(=O)c2ccc3c(c2)OCCO3)cc1	-1.1%	-6%	-64%[inhibitor]	-14%	-1	.	-14
CCCCN(CCCC)C(=O)c1cc(Cl)ccc1[N+](=O)[O-]	-4.7%	-3%	-4%	11%	-29	.	17
O=C(c1ccc(N2CCN(CCO)CC2)nc1)N1CCOCC1	-1.6%	7%	11%	3%	-1	-1.5	-13
Cc1ccnc2nc(C(=O)OCC(=O)N(Cc3ccccc3)C(C)(C)C)nn12	-3.5%	4%	3%	.	.	.	-2
CN(C)c1ccc(C2CC(=O)NC3=C2C(=O)CC(C)(C)C3)cc1 (stereo not given)	-7.9%	-1%	-49%	12%	10	-1.7	3
COC(CC(=O)NNC(=S)Nc1ccc(Cl)cc1)OC	.	3%	-2%	25%	-3	-0.8	-8
COC(=O)C1(C(=O)OC)NOC2C(=O)N(N(C)c3ncc(C(F)(F)F)cc3Cl)C(=O)C21 (stereo not given)	.	4%	1%	18%	-7	0.4	-5
COc1ccccc1C(=O)C1CCCN(C(=O)c2cccc(Cn3cccn3)c2)C1 (stereo not given)	-3.2%	-6%	-12%[15.4 µM]	0%	-6	.	5
O=c1c(Br)c(N2CCCCC2)cnn1-c1ccccc1	.	-36%	25%[15.4 µM]	14%	-6	1.7	10
CS(=O)(=O)NCCNc1ccc(Cl)cc1[N+](=O)[O-]	2.1%	-1%	-29%	4%	-21	4.2	1
CC(Sc1nc(N)cc(N)n1)C(=O)Nc1ccc(N2CCOCC2)cc1 (stereo not given)	0.5%	3%	7%	.	6	.	9
O=C(COc1cccc(C(F)(F)F)c1)NNC(=O)c1ccc(=O)[nH]c1	0.3%	8%	-39%[inhibitor]	.	.	.	21
O=C1CCC[C@@H]2Cc3nc4ccc(Cl)cc4cc3[C@@H]3CCN1[C@H]23	1.3%&-2.9%	0%	.	.	.	.	-13
COc1cccc(C(c2sc3ncnn3c2O)N2CCc3ccccc3C2)c1 (stereo not given)	1.1%	-12%	10%	-24%	5	1.1	-13
O=C1C=C(c2ccccc2)C(c2ccccc2)C1O (stereo not given)	-3.3%	1%	-25%	.	.	.	-3
O=C(c1ccc(N2CCCC2)c([N+](=O)[O-])c1)N1CCN(S(=O)(=O)c2ccccc2)CC1	-2.4%	-15%	?	.	3	.	4
COc1cc(-c2n[nH]c(=S)n2Cc2ccccc2)cc(OC)c1OC	.	-10%	-21%[15.4 µM]	-12%	-8	4.5	9
Cn1c(C=O)c(C#CC(C)(C)O)c2ccccc21	-1.7%	-6%	11%	.	4	.	52
CC1=CC[C@@]23CCCN2C(=O)CCC[C@H]3C1	0.0%	16%	.	12%	.	-7.5[138 µM]	16
COc1cccc(CNC(=O)C2CCCN(S(C)(=O)=O)C2)c1 (stereo not given)	-0.9%	0%	-19%	17%	2	-0.6	-7

The final 4 records of the part above are carried over, then new ones follow.
SMILES	ClpP mod	gsp antagonist	gsp agonist	Sfp inh	TRPV1 potentiator	Menin-MLL FL inh	TRPML1 blocker
COc1cc(-c2n[nH]c(=S)n2Cc2ccccc2)cc(OC)c1OC	.	-10%	-21%[15.4 µM]	-12%	-8	4.5	9
Cn1c(C=O)c(C#CC(C)(C)O)c2ccccc21	-1.7%	-6%	11%	.	4	.	52
CC1=CC[C@@]23CCCN2C(=O)CCC[C@H]3C1	0.0%	16%	.	12%	.	-7.5[138 µM]	16
COc1cccc(CNC(=O)C2CCCN(S(C)(=O)=O)C2)c1 (stereo not given)	-0.9%	0%	-19%	17%	2	-0.6	-7
COc1ccc(C(=N/O)/C(=N/O)c2ccc(OC)cc2)cc1	0.0%	-3%	-38%[inhibitor]	10%	1	3.8	12
COC(=O)C1=C(C)N(Cc2ccccc2)C(=O)/C1=C\c1ccco1	.	3%	-18%[15.4 µM]	-26%	-8	4.7	3
Cc1nc2ccc(S(=O)(=O)NCC(=O)N3CCC(C)CC3)cc2s1	-1.5%	-7%	4%	16%	-1	1.9	-18
O=C(Nc1nc2c(s1)CCc1ccccc1-2)c1ccco1	-2.0%	?	-32%	-15%	-7	0.3	16
C/C(CC(=O)Nc1ccccc1Br)=N\NC(=O)C(=O)N1CCCC1	-1.6%	-8%	?	-22%	-5	-0.2	-18
O=C(c1cc(-c2cccc(Cl)c2)nc2ccccc12)N1CCN(c2ccccn2)CC1	-3.0%	-19%	16%[15.4 µM]	-3%	-11	-3.8	-5
O=[N+]([O-])c1cccc(CN2C[C@@]34C=C[C@@H](C[C@@H]3S2(=O)=O)O4)c1	2.2%&-0.9%	16%	.	22%	-5	4.3	-4
CCN(C[C@H]1N[C@@](CC)(C(=O)OC)[C@H]2C(=O)N(C)C(=O)[C@@H]12)C(=O)c1ccccc1	0.7%	4%	.	.	.	.	-21
CCOc1ccc(N(C)S(=O)(=O)c2cc(-c3cc(C)no3)ccc2OC)cc1	-2.2%&-4.2%	-11%	-23%	-1%	-12	4.5	2&20
O=C(Nc1ccc(Oc2cccc(C(F)(F)F)c2)nc1)c1ccccc1	-0.8%	-6%	-9%[15.4 µM]	1%	-11	4.2	-4
CC(=O)Nc1ccc(NC(=S)NC(=O)c2cc3ccccc3o2)cc1	-0.5%	20%	9%	1%	-4	3.4	26
CCCN1CCN(C(=O)Cn2nc(C)n3c(cc4c(OC)cccc43)c2=O)CC1	.	7%	13%[15.4 µM]	.	.	.	-4

Records listed so far shown as hits in Sfp inh.
mol | gsp antagonist | gsp agonist | Sfp inh | Menin-MLL FL inh | TRPML1 blocker
Cn1c(=O)c([N+](=O)[O-])c(NCc2ccc3c(c2)OCO3)c2ccccc21 | -15% | ? | 50µM* | -1.7 | 0

(further entries)
SMILES	ClpP mod	gsp antagonist	gsp agonist	Sfp inh	TRPV1 potentiator	Menin-MLL FL inh	TRPML1 blocker
Cc1cc(SCC(=O)N(C)C2CCS(=O)(=O)C2)nc2c(C)cccc12 (stereo not given)	.	-3%	?	15%	-10	2.6	-4
O=C(N/N=C1\CCCc2ccccc21)c1ccc([N+](=O)[O-])cc1Cl	-1.2%	-14%	0%	-2%	-10	1.8	-17
Cc1ccc(C2(c3ccc(C)cc3)CC2C(=O)NCc2cccnc2)cc1 (stereo not given)	-2.3%	1%	-22%[15.4 µM]	0%	0	0.1	-6
S=c1[nH]nc(-c2ccncc2)n1/N=C/C=C/c1ccccc1	-0.5%	-16%	4%[15.4 µM]	-19%	9	1.3	-10
Cc1ccc2c(CN(C)Cc3ccc(OC(F)F)cc3)cc(=O)oc2c1C	-4.2%	-13%	-8%[15.4 µM]	10%	11	7.6	-6
C=CCNC(=O)C1CCN(S(=O)(=O)c2cccs2)CC1	0.0%	-3%	-6%	9%	5	.	10
Cc1cccc(CN2CCN(CC(=O)O)C2=O)c1	0.6%	2%	17%	89µM*	-6	-2.1	2
OC(COCC1COc2ccccc2O1)CN1CCCCC1 (stereo not given)	2.4%	8%	-3%	11%	3	-0.7	6
O=C(N/N=C/c1ccco1)c1cccc(NC(=O)c2cccc(Cl)c2)c1	.	-5%	-9%[15.4 µM]	25%	7	-1.0	-10
CCC(C(=O)OCCN(CC)CC)c1ccccc1 (stereo not given)	-3.4%	?	.	21%&4%	-3	-0.7&1.1	-3
Cc1onc(-c2c(Cl)cccc2Cl)c1C(=O)NC(=S)N1CCOCC1	0.9%	4%	-26%	-11%	7	-2.6	-4
CS(=O)(=O)N(CC(=O)NCc1ccc2c(c1)OCO2)c1ccccc1	2.8%	-7%	-3%	7%	3	1.9	4
Cc1cc(C(=O)CN2C(=O)C(=O)N(C3CCCC3)C2=O)c(C)n1-c1ccc(F)cc1	0.4%	13%	-5%[15.4 µM]	?	-9	0.6	-7
C=CCN(c1ccccc1)S(=O)(=O)c1cccc(C(=O)NCc2ccco2)c1	0.0%	-4%	-28%[15.4 µM]	.	.	.	80
O=C(COC(=O)/C=C/c1ccco1)Nc1ccccc1	0.9%	11%	-34%	-9%	-5	3.2	-7
CCN(CC(=O)Nc1ccc(NC(C)=O)cc1)C(=O)/C=C/c1cn(-c2ccccc2)nc1-c1ccc(C)cc1	-20%	-22%	10%[15.4 µM]	10%	1	.	-12
Cc1nn(CC(=O)N2CCCC2)c(=O)c2cc3cc(F)ccc3n12	4.0%	0%	24%	18%	4	.	14
Cc1nn(Cc2ccc(F)cc2)c2sc(C(=O)Nc3ccc(N4CCOCC4)cc3N3CCOCC3)cc12	-14%	-8%	16%	5%	-6	6.1	0
O=C1c2ccc(Cl)cc2S(=O)(=O)c2cccc(C(=O)N3CCC(Cc4ccccc4)CC3)c21	0.7%	-28%	13%	.	3	.	21
